# Assay outcomes from PubChem.
# RE007 growth inh = less growth of the S. pombe RE007 Vpr strain | S. pombe RE007 Vpr strain, BacTiter-Glo ATP luminescence, 24 h; control for the full effect not named in the record | AID 651644 | Potency, µM (titrated, usually from 92.2 µM), inactives show at the highest dose activity change, negative = less growth | 360,000 compounds, 0.21% hits; active = well fitted falling curve with a large enough effect; inconclusive = small, poorly fitted or top-dose-only effect; inactive = no such curve, though single readings can be large or run the other way;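 note: % is set by controls: 0 for no effect and ±100 for the full control effect; nearly all actives have a fitted effect of over 50% in size; the assay follows cell death caused by Vpr and the record does not say whether a fall means rescue or toxicity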
#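 Fission yeast RE007 carrying one integrated HIV-1 vpr copy, seeded at OD 0.01 in PMG+AL medium with 23 nL pinned compound. Grown 24 h at 30 degrees; viability read by BacTiter-Glo luminescence after 5 min.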
# NS1 inh = influenza NS1 inhibition; Potency, µM (highest dose often 46.1 µM), inactives show top-dose activity, positive = more growth; AID 2326; S. cerevisiae slowed by influenza A NS1, growth recovery by OD600; 270,000 compounds, 0.4% hits; note: actives are rising curves; nearly all actives have a fitted effect of over 50% in size
#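 Growth recovery, yeast-based: influenza A NS1 expressed in S. cerevisiae causes slow growth, and suppressors are detected by OD600. The parent strain without NS1 is used as positive control.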
# Cruzain inh noDet = cruzain (T. cruzi) inhibition without detergent; Potency, µM, inactives show max response, negative = inhibition, most hits filed as inhibitors; purified cruzain, Z-FR-AMC fluorescence, no detergent; 200,000 compounds, 2.3% hits; P25779; AID 1476; active = well fitted curve in the direction sought with a large enough effect; inconclusive = small, poorly fitted or top-dose-only effect, or another doubt; inactive = no such curve, though single readings can be large; an effect the other way counts as inactive or inconclusive;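 note: plate controls were enzyme without inhibitor for no effect and buffer without enzyme for full effect; nearly all actives have a fitted effect of over 40% in size; top concentration of the series not given in the record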
# Target sequence (P25779 123-467 limits assumed): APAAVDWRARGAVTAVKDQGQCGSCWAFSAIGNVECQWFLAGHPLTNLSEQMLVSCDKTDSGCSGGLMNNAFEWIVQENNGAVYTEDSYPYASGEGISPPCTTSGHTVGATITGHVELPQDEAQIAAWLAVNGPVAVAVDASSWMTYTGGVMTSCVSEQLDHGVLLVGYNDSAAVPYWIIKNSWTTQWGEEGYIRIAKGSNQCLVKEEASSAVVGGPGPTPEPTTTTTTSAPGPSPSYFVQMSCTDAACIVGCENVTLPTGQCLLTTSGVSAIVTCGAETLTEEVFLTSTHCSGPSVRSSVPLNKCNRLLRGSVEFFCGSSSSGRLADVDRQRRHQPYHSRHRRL
#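 Detergent-free condition (0.00005% Triton X-100) in acetate buffer pH 5.5 with DTT. 1.5 nM enzyme and compound were pre-mixed 15 min, then 2 uM Z-FR-AMC substrate added; reaction progress from fluorescence change between first and third reads (60 s).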
# SARS PLpro yeast = blocks SARS-CoV papain-like protease in a yeast assay. AID 485353. 330,000 compounds, 0.19% hits. Potency, µM (doses to about 32.9 µM), without a hit: top-dose activity, positive = growth rescue. S. cerevisiae expressing SARS-CoV PLpro, growth rescue; control for the full effect not named in the record; note: 0% is about no effect; nearly all actives have a fitted effect of over 55% in size; growth read by luminescence after 48 h
# Cruzain Triton = blocks cruzain activity in presence of Triton detergent. Potency, µM, for inactives: max response, negative = inhibition, usual class: inhibitors. 200,000 compounds, 0.43% hits. purified cruzain, Z-FR-AMC fluorescence, 0.01% Triton. P25779; active = well fitted curve in the direction sought with a large enough effect; inconclusive = small, poorly fitted or top-dose-only effect, or another doubt; inactive = no such curve, though single readings can be large; an effect the other way counts as inactive or inconclusive;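 note: plate controls were neutral wells for no effect and buffer without enzyme for full effect; nearly all actives have a fitted effect of over 40% in size; top concentration of the series not given in the record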
#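 Purified cruzain (1.5 nM final) was preincubated with compounds for 15 min at room temperature in 100 mM sodium acetate pH 5.5, 5 mM DTT, 0.01% Triton X-100. Reaction started with 2 uM Z-FR-AMC; AMC fluorescence change over 60 s gave activity.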
# LASV entry inh = blocks Lassa virus binding to or entry into cells | 300,000 compounds, 1.2% hits | AID 540256 | Lassa virus pseudotype entry inhibition, cell reporter; control for the full effect not named in the record | Potency, µM (doses to about 37.9 µM), for inactives: at the top dose activity change, negative = inhibition, most hits filed as inhibitors; active means well fitted inhibition curve with a large enough effect; inconclusive means small, poorly fitted or top-dose-only effect, or effect the other way; inactive means flat fitted curve, though single readings scatter; tested in HEK293 cells; note: % is set by controls: 0 for no effect and ±100 for the full control effect; nearly all actives have a fitted effect of over 50% in size; luciferase read-out
# 2A StopGo = FMDV 2A StopGo reporter, luciferase signal. human cells with a luciferase reporter of 2A StopGo recoding; control for the full effect not named in the record. Potency, µM (top dose mostly 57.9 µM), without a hit: at the top dose signal change, negative = less light. 410,000 compounds, 1.2% hits; active = well fitted falling curve with a large enough effect; inconclusive = small, poorly fitted or top-dose-only effect; inactive = no such curve, though single readings can be large or run the other way; tested in HEK293T cells; note: % is set by controls: 0 for no effect and ±100 for the full control effect; nearly all actives have a fitted effect of over 45% in size; luciferase light after 4 h
# MARV entry inh = Marburg virus entry inhibition. Marburg virus pseudotyped entry inhibition, cell reporter; control for the full effect not named in the record; about a third of the inactives were read at about 46 µM. Potency, µM (highest dose often 37.8 µM), without a hit: at the highest dose activity change, negative = inhibition, usual class: inhibitors. 300,000 compounds, 1.8% hits; active = well fitted inhibition curve with a large enough effect; inconclusive = small, poorly fitted or top-dose-only effect, or effect the other way; inactive = flat fitted curve, though single readings scatter; tested in HEK293 cells; about a fifth of its hits are not listed in these tables; note: % is set by controls: 0 for no effect and ±100 for the full control effect; luciferase read-out
# Numbers without * were called inactive; ? = inconclusive; / = no result given; [ ] = dose if it differs, or a comment. Unless noted, calls come from the whole dose curve; as a rule, active means well fitted rising curve with a large enough effect; inconclusive means small, poorly fitted or top-dose-only effect; inactive means no such curve, though single readings can be large or run the other way. Potency is the fitted concentration of half-maximal effect.
SMILES,RE007 growth inh,NS1 inh,Cruzain inh noDet,SARS PLpro yeast,Cruzain Triton,LASV entry inh,2A StopGo,MARV entry inh
O=C(CSc1nnc(CNC(=O)c2cccs2)o1)Nc1ccccc1C(F)(F)F,3%,-7%,/,1%,/,-4%[46.1 µM],-6%,17%[46.1 µM]
O=C(NCCN1CCOCC1)c1cc(Sc2ccccc2Cl)nc2ccccc12,/,6%,0%,-5%,-5.3%,-29%,/,-31%
Cc1ccc(N(CC(=O)Nc2ccc3c(c2)OCCO3)S(=O)(=O)c2c(C)n[nH]c2C)cc1,-9%,-13%,11%,3%,-2.3%,12%,-23%,24%[46.1 µM]
CC(OC(=O)C1CSC2(c3ccc(F)cc3)CCC(=O)N12)C(=O)NC(N)=O (stereo not drawn),-1%,/,/,2%,/,2%,0%,?
CC(=O)c1cccc(NC(=O)CSCc2ccc(Br)cc2)c1,16%,-5%,-8%,17%,-5.8%,-23%,-26%,9%
CCc1c(C(=O)N/N=C/c2cn[nH]c2-c2ccc(F)cc2)csc1C,0%,-7%,?,1%,-7.5%,2%,0%,4%
Cc1ccc(-c2csc(NC(=O)CCCc3cccs3)n2)cc1,18%,13%,7.9µM*,1%,-0.1%,-7%,8%,-7%
CN(C)S(=O)(=O)N1CCC(Oc2ccc(C(=O)NC3CCCCC3)cc2)CC1,-6%,0%,/,-1%,/,-15%,-27%,20%[46.1 µM]
Cc1nc2ncnn2c(C)c1Cc1ccc(Cl)cc1F,17%,-10%,3%,-14%,-2.2%,9%,-13%,-6%
CN(Cc1ccon1)C(=O)CC1C(=O)NCCN1Cc1ccc(F)c(F)c1 (stereo not drawn),-10%,25%,/,-1%,/,17%,-9%,?
Cc1cccc(NCCC(=O)c2ccc(Br)cc2)c1,?,-18%,-17%,-17%,-0.2%,5%,/,12%
Cc1ncc(CO)c2c1Oc1nc(-c3ccccc3)nc(SCC(=O)Nc3cccc(O)c3)c1C2,-11%,2%,/,1%,/,/,-14%,/
CCOC(=O)c1cc(CC)sc1NC(=O)COC(=O)c1ccccn1,-11%,/,/,1%,/,6%,6%,-27%[46.1 µM]
Brc1ccc(-c2ccc(CNCCSc3nnnn3-c3ccccc3)o2)cc1,/,/,-12%,/,-12%,21%[46.1 µM],0%,2%[46.1 µM]
CCOc1ccccc1NC(=O)N1CCN(Cc2cc(=O)n3nc(-c4ccc(C)cc4)sc3n2)CC1,/,/,-10%,/,4.4%,21%[46.1 µM],-14%,/
COCCN(C(=O)Cc1ccc(S(=O)(=O)N2CCOCC2)s1)c1c(N)n(CC(C)C)c(=O)[nH]c1=O,-2%,/,/,/,/,8%,-19%,-2%
CN(CC(=O)N1CCCC1)S(=O)(=O)c1ccc2ccccc2c1,12%,0%,/,0%,/,1%[46.1 µM],-15%,9%[46.1 µM]
CC1(C)CC(=O)C2=C(C1)Nc1ccccc1NC2c1ccc2c(c1)OCO2 (stereo not drawn),-15%,1%,-9%,?,-4.0%,-3%,7%,?
CC1=CC(C)(C)N2C(=O)C3(C(C#N)=C(N)OC4=C3C(=O)CC(C)(C)C4)c3cccc1c32 (stereo not drawn),/,-15%,?,0%,3.9%,/,/,/
COC(=O)Cn1c(SCCOc2ccccc2OC)nc2ccccc21,/,/,9%,/,-2.2%,14%[46.1 µM],43%[activator],-25%[46.1 µM]

# Only LASV entry inh, 2A StopGo and Cruzain Triton, for some of the entries so far:
SMILES	LASV entry inh	2A StopGo	Cruzain Triton
Cc1cccc(NCCC(=O)c2ccc(Br)cc2)c1	5%	/	-0.2%
Cc1ncc(CO)c2c1Oc1nc(-c3ccccc3)nc(SCC(=O)Nc3cccc(O)c3)c1C2	/	-14%	/

# More results:
SMILES,RE007 growth inh,NS1 inh,Cruzain inh noDet,SARS PLpro yeast,Cruzain Triton,LASV entry inh,2A StopGo,MARV entry inh
COc1ccc(-c2nn(CCC#N)cc2C(=O)Nc2cccc(C(=O)O)c2)cc1OC,2%,11%,/,10%,/,/,-21%,/
Cc1cccc(C)c1N1CCN(C(=O)Nc2ccc3c(c2)OCCO3)CC1,12%,1%,-8%,3%,-4.2%,?,13%,?
COc1cccc(NC(=O)NNC(=O)COc2ccc3ccccc3c2)c1,2%,-1%,/,-1%,/,-8%[46.1 µM],1%,16%[46.1 µM]
COCc1ccc(C(=O)N2CCc3c([nH]c4ccccc34)C2c2ccccn2)s1 (stereo not drawn),22%,-32%,/,-1%,/,?,-8%,?
Cc1cc(=O)n(Cc2ccccc2Cl)c2c1c(C)nn2-c1ccccc1,/,/,-15%,/,-0.8%,15%[46.1 µM],-8%,/
COc1cccc(C(=O)Nc2ccc(S(=O)(=O)Nc3onc(C)c3C)cc2)c1,2%,-56%,-2%,2%,0.1%,10%,-20%,-1%
CC(C)C(OC(=O)CN1C(=O)c2ccccc2C1=O)C(=O)NC1CCCC1 (stereo not drawn),1%,5%,/,3%,/,?,-5%,-10%[46.1 µM]
COc1ccccc1C(=O)NCCc1csc(-c2ccc(C(F)(F)F)cc2)n1,/,/,?,/,-14%,?,?,/
Cc1ccccc1-n1c(SCc2c(C)noc2C)nnc1-c1c[nH]c2ccccc12,4%,1%,3%,-5%,2.5%,?,?,?
COC1=C(Nc2ccccc2OC)C(=O)c2ccccc2C1=O,1%,-2%,/,-3%,/,13%,-2%,6%[46.1 µM]

# Grouped by structure: the entries above with an aryl methoxy group (six)
SMILES,RE007 growth inh,NS1 inh,Cruzain inh noDet,SARS PLpro yeast,Cruzain Triton,LASV entry inh,2A StopGo,MARV entry inh
COC(=O)Cn1c(SCCOc2ccccc2OC)nc2ccccc21,/,/,9%,/,-2.2%,14%[46.1 µM],43%[activator],-25%[46.1 µM]
COc1ccc(-c2nn(CCC#N)cc2C(=O)Nc2cccc(C(=O)O)c2)cc1OC,2%,11%,/,10%,/,/,-21%,/
COc1cccc(NC(=O)NNC(=O)COc2ccc3ccccc3c2)c1,2%,-1%,/,-1%,/,-8%[46.1 µM],1%,16%[46.1 µM]
COc1cccc(C(=O)Nc2ccc(S(=O)(=O)Nc3onc(C)c3C)cc2)c1,2%,-56%,-2%,2%,0.1%,10%,-20%,-1%
COc1ccccc1C(=O)NCCc1csc(-c2ccc(C(F)(F)F)cc2)n1,/,/,?,/,-14%,?,?,/
COC1=C(Nc2ccccc2OC)C(=O)c2ccccc2C1=O,1%,-2%,/,-3%,/,13%,-2%,6%[46.1 µM]

# Continued:
SMILES,RE007 growth inh,NS1 inh,Cruzain inh noDet,SARS PLpro yeast,Cruzain Triton,LASV entry inh,2A StopGo,MARV entry inh
O=C(c1ccc(Cl)cc1)C1CCN(C(=O)C2CC2)CC1,-16%,-8%,4%,-1%,8.4%,-14%,-19%,1%
CCOC(=O)c1sc(NC(=O)CSc2nnc(C(C)C)n2C)nc1C,-10%,0%,7%,-5%,-0.7%,-27%,9%,1%
Cc1ccc(/C=N/N2CCN(c3ccc(Cl)cc3)CC2)o1,-24%,10%,-17%,0%,4.1%,-1%,-27%,-9%
COc1ccc(OCC(=O)Nc2ccc(O)c(-c3nc4ccccc4s3)c2)cc1,/,/,3%,/,-2.4%,6%[46.1 µM],0%,/
O=C(O)c1ccc(Cn2cc(/C=C\[N+](=O)[O-])c3ccccc32)o1,0%,25%,/,-2%,/,/,-12%,/
CCc1cc(CNC(=O)c2ccc(OC)c(OC3CCN(C(C)C)CC3)c2)on1,10%,23%,/,2%,/,-18%,-22%,-28%
Cc1ccc(S(=O)(=O)NCCCCCC(=O)Nc2nccs2)cc1,6%,-8%,9%,6%,1.8%,4%,-6%,-11%
CN1CC(=O)N(CC(=O)NCCc2ccc(F)cc2)c2ccccc2C1=O,-2%,2%,5%,0%,-1.0%,?,10%,2%
COc1cccc(-c2nc3n(n2)C(c2ccc4c(c2)OCO4)C(C(N)=O)=C(C)N3)c1 (stereo not drawn),8%,26%,-1%,6%,2.8%,-8%,-13%,0%
Oc1ccc(Br)cc1-c1nc2cnccn2c1NC1CCCCC1,-18%,-151%,5%,-27%,-8.1%,4%,/,?
Cc1c(C(=O)NCc2ccccc2)cnn1-c1ccccc1,-1%,-19%,9%,/,1.6%,11%,42%[activator],1%
COCCOC(=O)c1[nH]c2c(c1C)C(=O)CC(c1ccc(OC)cc1)C2 (stereo not drawn),-11%,2%,/,0%,/,/,3%,/
NNC(=O)c1cccnc1Oc1ccccc1,-20%,6%,/,0%,/,-13%[46.1 µM],?,7%[46.1 µM]
CCN(CC)c1ccc(N=Cc2ccccc2[N+](=O)[O-])cc1,?,-3%,-7%,14%,-1.4%,?,4%,?
CSCCC(NC(=O)OC(C)(C)C)C(=O)NC(CC(C)C)C(N)=O (stereo not drawn),3%,7%,-2%,5%,-0.7%,14%,?,?
CNc1ccccc1NC(=O)C1CCCN1C(=O)OCc1ccccc1 (stereo not drawn),0%,7%,/,1%,/,/,1%,/
CCCC12CN3CC(C)(CN(C1)C3c1ccc(OC)cc1)C2=O (stereo not drawn),2%,-7%,0%,0%,4.5%,-2%,-18%,9%
CCC(C)(C#CCN1CCCCC1)OC(C)=O (stereo not drawn),-9%,1%,/,-1%,/,1%,26%,5%[46.1 µM]
Cn1c(N)c(C(=O)Nc2ccc3ccccc3c2)sc1=S,-3%,12%,-8%,-2%,2.7%,?,80%[activator],?
CC1(C)NC(=O)N(CC(=O)OCC(=O)c2ccc(F)cc2)C1=O,11%,/,/,-3%,/,16%,-14%,0%
COc1ccc(/C=C/c2ccncc2)cc1OC,9%,-3%,-2%,-18%,-8.3%,3%,37%[activator],10%
Fc1ccc(CSc2nnc(Cc3sc(-c4ccccc4)nc3-c3ccccc3)o2)cc1,13%,4%,?,-5%,0.8%,1%,-13%,-6%
CC(=O)N(Cc1cccc(Br)c1)c1ccc(N2CCOCC2)c(Cl)c1,3%,-42%,/,-5%,/,/,2%,/
CC1(C)Cc2cccc(OCC(=O)Nc3cccnc3)c2O1,21%,-7%,-4%,0%,0.5%,-8%,?,8%
COc1ccc(CN(C)C(=O)Cc2c[nH]c3ccccc23)c(OC)c1OC,0%,-7%,/,0%,/,5%[46.1 µM],15%,?
